From PubChem BioAssay
LANA-H2B inh: blocks KSHV LANA binding to histone H2A/H2B; cell-free LANA-H2A/H2B peptide, fluorescence polarization; inhibition, % (no concentration beside the values); 320,000 tested, 0.6% active; AID 2629; in the data active = inhibition mostly above about 10%, no sharp cut-off; inactive = mostly below about 6.7%;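 also: stock transfer was 7.5 nL into about 10 µL; 0% = median of vehicle wells and 100% = median of positive control wells; one replicate is shown; the record names a cut of 25% in any replicate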
UCH37 DUB inh: human UCH37 deubiquitinating enzyme inhibition; Q9Y5K5; purified proteasome/UCH37, Ub-AMC cleavage fluorescence; inhibition, % (no concentration beside the values); 330,000 tested, 0.33% active; AID 588478;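 active = mean of two replicates above 20%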;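 also: 0% = compound-free wells with enzyme and 100% = wells lacking proteasome; stock transfer was 100 nL into about 20 µL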
Target sequence (Q9Y5K5 whole entry, looked up): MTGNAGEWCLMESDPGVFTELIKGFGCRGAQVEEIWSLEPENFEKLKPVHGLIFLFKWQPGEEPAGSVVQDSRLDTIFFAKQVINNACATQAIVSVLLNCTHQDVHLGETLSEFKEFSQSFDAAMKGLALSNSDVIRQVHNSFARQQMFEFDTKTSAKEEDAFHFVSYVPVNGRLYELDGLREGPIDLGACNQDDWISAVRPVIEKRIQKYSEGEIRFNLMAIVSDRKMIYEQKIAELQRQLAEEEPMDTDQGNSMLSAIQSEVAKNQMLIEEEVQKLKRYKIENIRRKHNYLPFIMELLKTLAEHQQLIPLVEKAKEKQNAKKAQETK
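Material: human UCH37 enzyme supplied as purified proteasome complex. Measure: % inhibition of Ub-AMC cleavage fluorescence. Medium: pH 7.4 Tris-HCl (50 mM) with ovalbumin, ATP-MgCl2, DTT. Times: 30 min preincubation with enzyme, 25 min cleavage at room temperature. Detection: AMC fluorescence intensity at 355/460 nm.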
HNF4A DNA FP: change in binding of human HNF4 alpha to DNA; AID 1224865; HNF4a-FITC DNA binding, fluorescence polarization, 1 h; 360,000 tested, 0.3% active; P41235; activity change, % at 10 µM; in the data active = activity change above about 30%, passing the limit was not always enough;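 also: controls were the assay level and a saturating level of protein; the project sought stronger binding though the title names inhibitors; some compounds called inactive have numbers as strong as hits; positive values seem to mean higher polarization but the record does not say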
Target sequence (P41235 whole entry, looked up): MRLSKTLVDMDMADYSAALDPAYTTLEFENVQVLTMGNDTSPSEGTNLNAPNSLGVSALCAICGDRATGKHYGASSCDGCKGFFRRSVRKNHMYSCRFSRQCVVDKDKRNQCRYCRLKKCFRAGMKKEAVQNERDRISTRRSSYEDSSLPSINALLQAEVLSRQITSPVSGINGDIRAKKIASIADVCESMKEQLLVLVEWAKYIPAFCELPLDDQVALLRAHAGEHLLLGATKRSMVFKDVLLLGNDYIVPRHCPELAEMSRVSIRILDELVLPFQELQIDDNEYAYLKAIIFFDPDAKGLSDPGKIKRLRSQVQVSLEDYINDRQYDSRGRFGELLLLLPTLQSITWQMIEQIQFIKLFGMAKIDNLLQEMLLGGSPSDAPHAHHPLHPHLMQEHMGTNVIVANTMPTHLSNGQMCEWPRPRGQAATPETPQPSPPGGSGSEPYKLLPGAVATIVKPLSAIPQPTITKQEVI
Bfl-1 A1 inh: inhibitors of the anti-apoptotic protein A1, read as caspase activation | MEF A1-2A-BIM cells, Caspase-Glo 3/7 luminescence, 3 h; percent of clofoctol response, vehicle zero | caspase activation, % (concentration not given with the values) | 330,000 tested, 0.066% active;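 active = over half of replicate activation scores above 10%, or exactly half above 10 with the replicate mean above 10; inconclusive = replicate mean below 10 yet half the replicates above 10; inactive = over half of replicates below 10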;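 also: wells of about 30 µL received 50 nL stock; many hits fall short of the cut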
Ecoli growth: inhibitors of Escherichia coli growth. OD600, 23 h; active compounds read low. OD600 absorbance (test concentration not listed). 330,000 tested, 0.21% active. AID 1053175;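 active = OD600 absorbance below the run mean of sample wells minus 3.6 SD, in any replicate, cut at about 0.56 in these data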;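 also: stock transfer was 300 nL into about 60 µL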
Beta2AR agonist: agonists of human beta-2 adrenergic receptor inducing internalization. Am2.2-beta2AR cells, FAP receptor internalization, flow cytometry; reference of the scale not given here. response, % (concentration not given with the values). 340,000 tested, 0.43% active. AID 504454;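 active = response above a set limit, near 3 SD of response in nonfluorescent compounds, cut at about 42% in these data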;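 also: stock transfer was 100 nL into about 11 µL; a reference agonist was the positive control; negative values mostly stem from fluorescent compounds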
Vif TR-FRET: inhibitors of Vif binding to APOBEC3G peptide, primary screen, biochemical, TR-FRET, GST-Vif 1-94, biotin-A3G peptide, dose response retest (AID 1117319); one-dose inhibition, %; IC50 in µM for titrated hits; TR-FRET GST-Vif / biotin-A3G peptide binding; higher % means a stronger effect; test concentration not given here; strong numbers were not always called active; 260,000 tested, 0.57% active;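 active = above the screen mean plus three standard deviations and confirmed in dose response; inconclusive = results disagree or hit not tested in dose response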;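 also: Vif residues 1-94 fused to GST binding biotinylated APOBEC3G peptide 110-148; 0% = full assay without inhibitor and 100% = GST in place of GST-Vif; retest series ran down from 100 µM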
* = called active by the depositor; ? = inconclusive; . = no result given. This is a random part of the collection (roughly 2.1% active in at least one column).

SMILES	LANA-H2B inh	UCH37 DUB inh	HNF4A DNA FP	Bfl-1 A1 inh	Ecoli growth	Beta2AR agonist	Vif TR-FRET
COc1cc2c(cc1OC)CN(c1ccc3ccccc3n1)CC2	-2.2	.	0.2	.	.	9	-1%
CC(C)N1C(=O)C2(OCCCO2)c2cc(Br)ccc21	0.0	1.9	-2.8	-0.6	0.66	2	.
Cc1ccc(C)c(OCC(=O)O/N=C(\N)c2cccnc2)c1	6.3	0.7	-1.2	-0.2	0.68	-12	.
O=C(c1cc(COc2cccc3cnccc23)on1)N1CCCC(CCCO)C1 (stereo unspecified)	-3.2	-57	3.2	-1.0	0.69	5	.
Cc1ccc(NC(=S)N2CCN(C(=O)c3ccccc3)CC2)c(C)c1	5.8	2.5	0.6	0.6	0.7	1	-2%
CC(NC(=O)COC(=O)c1ccc2c(c1)OCCO2)c1ccccc1 (stereo unspecified)	-0.8	6.1	1.8	-0.8	0.67	-10	0%
O=C(O)c1cccc(Nc2nc3ccccc3nc2NS(=O)(=O)c2ccccc2)c1	1.0	8.6	3.7	0.4	0.66	-1	-3%
COc1ccc(OCC(=O)NNC(=O)C2CCC2)cc1	0.9	4.3	1.2	-0.7	0.7	-6	.
CC1CCN(C(=O)COC(=O)c2ccc(N3CCCC3=O)cc2)CC1	10	-2.2	1.8	0.4	0.71	-9	-14%
O=C(CSc1nnc(CSc2nc3ccccc3s2)o1)NC1CCCCC1	-2.1	-3.3	-2.2	-0.3	0.73	-16	-2%
Cc1ccc(C)c(N2CCN(C(=O)CCc3nc(-c4cccc(C(F)(F)F)c4)no3)CC2)c1	.	-1.2	0.4	.	0.72	1	.
O=c1cnn([C@@H]2O[C@H](CO)[C@@H](O)[C@H]2O)c(=O)[nH]1	-3.1	2.8	0.2	-0.3	.	-2	?
O=C(Cc1ccc(-n2c(=O)[nH]c3ccsc3c2=O)cc1)NCc1cccnc1	-1.6	3.6	-1.7	-0.1	0.66	-6	.
CN(C)S(=O)(=O)c1cccc(NC(=O)COC(=O)/C=C/c2ccc(Br)o2)c1	6.2	5.7	-18	0.2	0.7	-3	?
CCOc1cc(/C=C/C(=O)OCC(=O)NCc2ccco2)cc(Cl)c1OC	-3.2	-1.0	1.2	1.3	0.67	5	12%
CCOc1ccc(N(C(=O)CNC(=O)c2ccco2)C(C(=O)NCC2CCCO2)c2ccccc2)cc1 (stereo unspecified)	0.9	2.5	-1.7	0.2	0.68	-3	.
COc1cc(/C=C/c2ccc(O)cc2)cc(OC)c1	-1.7	-4.3	6.4	-0.9	0.72	3	0%
O=C(CSC1CC(=O)N(CC(c2ccccc2)c2ccccc2)C1=O)Nc1ccc(Cl)cc1 (stereo unspecified)	-2.9	3.5	-0.9	-0.2	0.69	0	-4%
CC(C)CN(C(=O)COc1ccc(Br)cc1C=O)C1CCS(=O)(=O)C1 (stereo unspecified)	4.7	-1.8	6.7	-0.4	0.69	2	3%
CCCCN(C(=O)CNC(=O)c1cccs1)C(C(=O)NC1CCCCC1)c1cccnc1 (stereo unspecified)	2.6	1.1	-0.7	-0.9	0.69	-5	2%
COC(=O)Cc1ccc(OC(=O)CCS(=O)(=O)c2ccc(C)cc2)cc1	2.3	0.6	0.0	0.6	0.68	-6	8%
CC(=O)Nc1nnc(SCC(=O)NCCOc2ccccc2)s1	-3.2	-0.4	-3.1	0.0	0.66	3	12%
COc1cccc(NC(=O)CN(C)C(=O)c2ccc3ccccc3c2)c1	-1.7	2.2	-1.9	1.4	0.74	0	10%
Cc1ccccc1NS(=O)(=O)c1ccc(NC(=O)CSCc2ccc(Br)cc2)cc1	0.8	5.6	-5.3	0.2	0.74	-5	1%
O=C1CC(c2c(F)cccc2Cl)C(n2cncn2)C(O)=C1C1NCCc2ccccc21 (stereo unspecified)	.	3.8	2.8	0.4	0.72	-2	-4%
NCC12CC3CC(C1)CC(CN)(C3)C2	8.1	5.2	0.4	0.1	0.71	1	1%
CC(C)N1CCC(N2CCN(Cc3ccc(Oc4ncccn4)cc3)CC2CCO)CC1 (stereo unspecified)	0.5	-1.0	0.9	2.5	0.69	4	32%
COc1ccc(N2CCN(S(=O)(=O)c3c(C)noc3/C=C/N(C)C)CC2)cc1	-3.2	4.1	4.4	-1.1	0.67	5	.
Cn1c(-c2ccccc2)cnc1NCc1ccccc1	2.0	1.4	0.5	-0.3	0.64	-13	3%
COc1ccccc1-n1cnnc1SCC(=O)N1CC(=O)Nc2ccccc21	2.7	1.5	1.4	0.4	0.75	-8	0%
CCOC(=O)C(C)Oc1ccsc1C(=O)OC (stereo unspecified)	0.6	-0.6	.	0.8	0.74	.	0%
CC(/C=N/NC(=O)c1ccccc1F)c1ccccc1 (stereo unspecified)	-1.2	.	-1.5	-0.1	.	15	6%
CC(=O)Nc1ccc2c(c1)ncn2-c1ccc(C)cc1	3.5	0.6	-1.7	-2.3	0.72	-1	6%
O=C(NC1CCCC1)c1ccc2c(c1)S(=O)(=O)c1ccccc1C2=O	-3.3	2.5	-1.2	0.7	0.65	-11	.
Cc1cc(=O)[nH]c(SCC(=O)Nc2ccc(F)c([N+](=O)[O-])c2)n1	6.2	-1.9	-5.3	0.5	0.65	5	-4%
CC(OC(=O)c1ccccc1OCc1ccc(Cl)cc1)C(N)=O (stereo unspecified)	3.0	1.4	-1.1	1.3	0.68	-3	-8%
Cc1c(Cl)ccc2c(C(N)=O)cc(-c3ccccn3)nc12	5.5	3.0	1.5	1.5	0.71	5	-4%
c1ccc(CNc2nc(-c3ccccn3)nc3ccccc23)cc1	-0.6	3.0	-1.4	-0.1	0.63	1	.
COc1ccc(F)c(CN2CCC(CO)(Cc3cccc(C(F)(F)F)c3)CC2)c1	-4.3	2.0	-1.5	0.5	0.66	2	.
CCOc1ccc(NS(=O)(=O)c2ccc(NS(=O)(=O)c3cccs3)cc2)cc1	3.3	0.7	-0.7	-0.6	0.69	6	-2%
CCc1ccc(OC(=O)Cc2ccc(OC)c(S(=O)(=O)N3CCOCC3)c2)cc1	5.0	2.5	3.5	-0.9	0.65	4	.
O=C(N/N=C/C=C\c1ccccc1)c1cnccn1	-1.5	.	3.7	0.0	.	-9	-4%
CCOC(=O)C1CCN(C(=O)c2cc3c(C)cc(C)cc3[nH]2)CC1	-1.3	3.5	-3.5	0.5	0.65	0	-3%
Nc1nnc(SCC(=O)Nc2ccccc2N2CCOCC2)s1	-1.2	4.9	1.0	0.8	0.72	11	-6%
COC(=O)C1=C(C)N(Cc2ccccc2)C(=O)N[C@H]1c1cccc(C(F)(F)F)c1	-10	4.5	-1.4	-0.4	.	3	6%

An excerpt from above in order of their number in LANA-H2B inh, lowest first:
compound | LANA-H2B inh | UCH37 DUB inh | HNF4A DNA FP | Ecoli growth | Beta2AR agonist | Vif TR-FRET
O=C(N/N=C/C=C\c1ccccc1)c1cnccn1 | -1.5 | . | 3.7 | . | -9 | -4%
CCOC(=O)C(C)Oc1ccsc1C(=O)OC (stereo unspecified) | 0.6 | -0.6 | . | 0.74 | . | 0%
CCc1ccc(OC(=O)Cc2ccc(OC)c(S(=O)(=O)N3CCOCC3)c2)cc1 | 5.0 | 2.5 | 3.5 | 0.65 | 4 | .

Other results
SMILES	LANA-H2B inh	UCH37 DUB inh	HNF4A DNA FP	Bfl-1 A1 inh	Ecoli growth	Beta2AR agonist	Vif TR-FRET
C=CCn1c(COc2ccccc2)nnc1SCc1ccc(C#N)cc1	.	1.6	4.3	-0.1	0.75	-1	24%
COC(=O)NNC(=O)COc1cc(C)c(Br)cc1C(C)C	-0.2	3.9	2.7	1.4	0.68	2	7%
COc1ccccc1OCc1ccc(C(=O)NCC2CCCO2)o1 (stereo unspecified)	4.1	1.2	2.0	-0.3	0.66	9	-3%
Cc1noc(C)c1S(=O)(=O)N1CCC(C(N)=O)CC1	-8.0	1.8	5.5	-0.5	0.68	5	.
COc1ccc(S(=O)(=O)N2CCCCC2)cc1NC(=O)c1cccc(S(=O)(=O)N2CCOCC2)c1	.	3.3	-0.2	.	0.66	13	.
COc1ccc(/C=C(\C#N)C(=O)NCc2cccs2)cc1OC	1.1	2.5	1.0	0.4	0.69	5	-4%
O=C(C1=C[C@@H](c2ccc3c(c2)OCO3)C[C@@H](OCCCCO)O1)N1CCN(Cc2ccc3c(c2)OCO3)CC1	-1.2	1.3	3.5	0.8	.	17	9%
Cc1ccccc1OCC(=O)N/N=C/C=C/c1ccccc1	-4.0	.	-0.7	0.4	.	0	?
C/C(=N\Nc1cccc([N+](=O)[O-])c1)c1ccccc1O	1.8	.	4.2	1.1	.	-12	5%
Cc1cccn2c(=O)c3cc(C#N)c(=NC(=O)c4cccs4)n(CCCOC(C)C)c3nc12	12	-128	-1.4	-0.5	0.68	3	1%
c1ccc(C2(c3ccccc3)OCC(Cn3cncn3)O2)cc1 (stereo unspecified)	0.4	4.1	-0.1	0.9	0.74	1	1%
O=C(CN(Cc1ccccc1F)C(=O)c1csnn1)NCc1ccc2c(c1)OCO2	-0.9	0.3	1.3	0.2	0.63	-1	1%
Cc1ccccc1NC(NC(=O)OCCn1c([N+](=O)[O-])cnc1C)C(Cl)(Cl)Cl (stereo unspecified)	-3.2	4.4	2.3	-1.6	0.7	1	16%
C=CCN1C(=O)c2ccc(C(=O)N(C)Cc3ccc(C)o3)cc2C1=O	7.7	3.7	2.1	0.0	0.7	2	13%
CCOC(=O)c1c(C)c(C(=O)NCCCN2CCCC2=O)c(C)n1CC	5.4	-1.2	-0.6	-1.7	0.75	-7	-7%
CC(Oc1ccc2c3c(c(=O)oc2c1)CCCC3)C(=O)NC1CC(C)(C)NC(C)(C)C1 (stereo unspecified)	5.5	-51	3.7	1.6	0.72	1	.
CNC(=O)c1cccc(NC(=O)c2ccccc2OCc2ccccc2)c1	7.3	-2.9	0.3	-0.2	0.64	-7	.
CCc1ccc(-c2nc(CN3CCC(C(=O)NCCN(CC)c4ccccc4)CC3)c(C)o2)cc1	-6.2	0.6	-2.1	0.5	0.66	42	15%
O=[N+]([O-])c1cc(S(=O)(=O)Nc2ccccc2)ccc1NCc1cccnc1	-0.4	5.1	-1.6	0.4	0.73	-6	17%
Cc1ccc(-c2csc(N)n2)cc1	.	0.3	1.9	.	0.61	-2	2%
Cc1cccc(C(=O)NCC(=O)N2CC=C(c3ccccc3)CC2)c1	1.0	-2.0	0.2	-0.7	0.69	-8	-5%
CC(C)CNC(=O)CCc1nc(-c2ccccc2)no1	-2.1	6.4	1.3	0.1	0.7	0	-3%
COC(=O)C1=C(C)N(C)C(=S)NC1c1ccccc1 (stereo unspecified)	3.2	1.8	1.2	0.4	0.7	-4	-5%
CCOc1ccc(Br)cc1S(=O)(=O)NC1CCCC1	-2.0	3.2	7.3	0.9	0.71	3	1%
O=C(Nc1cccc(-n2cnnn2)c1)c1cccs1	-1.0	0.3	-0.2	-0.5	0.68	0	8%
Cc1nn(CC(=O)NC(C)CCc2ccccc2)c(=O)c2nn(-c3ccccc3)c(C)c12 (stereo unspecified)	-4.2	3.1	1.5	0.4	0.69	-6	-5%

Copied from the list:
Ecoli growth result of `CCc1ccc(-c2nc(CN3CCC(C(=O)NCCN(CC)c4ccccc4)CC3)c(C)o2)cc1` is entered as 0.66
Beta2AR agonist result of `Cc1cccc(C(=O)NCC(=O)N2CC=C(c3ccccc3)CC2)c1` is entered as -8
Beta2AR agonist result of `O=[N+]([O-])c1cc(S(=O)(=O)Nc2ccccc2)ccc1NCc1cccnc1` is entered as -6
Vif TR-FRET result of `CC(C)CNC(=O)CCc1nc(-c2ccccc2)no1` is entered as -3%
Ecoli growth result of `CC(Oc1ccc2c3c(c(=O)oc2c1)CCCC3)C(=O)NC1CC(C)(C)NC(C)(C)C1` (stereo unspecified) is entered as 0.72
HNF4A DNA FP result of `COC(=O)C1=C(C)N(C)C(=S)NC1c1ccccc1` (stereo unspecified) is entered as 1.2
